RVFV N-RNA FP: blocks Rift Valley Fever Virus nucleoprotein binding to RNA | % bound, % (no concentration beside the values) | P21700 | RVFV N-RNA binding, fluorescence polarization; active compounds read low | 20,000 tested, 0.1% active;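 active = between 0 and 58% in either replicate with normal brightness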;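 note: 100 nL library stock added to about 12 µL; 100% = protein and probe without compound and 0% = probe alone; numbers are from one replicate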
Target sequence (P21700 whole entry, looked up): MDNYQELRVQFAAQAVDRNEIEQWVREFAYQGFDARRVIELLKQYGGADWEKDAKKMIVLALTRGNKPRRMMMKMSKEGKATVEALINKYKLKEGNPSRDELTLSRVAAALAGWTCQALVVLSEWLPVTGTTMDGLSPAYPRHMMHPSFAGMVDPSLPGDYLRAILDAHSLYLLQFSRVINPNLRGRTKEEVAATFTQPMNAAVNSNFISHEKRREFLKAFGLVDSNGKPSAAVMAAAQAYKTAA
Numbers without * were called inactive; & = joins results of further samples.

Preview, ten compounds:
SMILES	RVFV N-RNA FP
O=C(O)CCC(=O)c1ccc(-c2ccccc2)cc1	96
CC[C@H](NC(C)C)[C@H](O)c1ccc(O)c2[nH]c(=O)ccc12	95
CCCCNc1ccc(C(=O)OCCN(C)C)cc1	94
CCOc1nc(NC(=O)Cc2cc(OC)ccc2OC)cc(N)c1C#N	90
CCOC(=O)[C@H](CCc1ccccc1)N[C@@H](C)C(=O)N1Cc2ccccc2C[C@H]1C(=O)O	95&97
C/C=C/C(=O)N(CC)c1ccccc1C	110&97
Nc1ccc(-c2cccc3c(=O)cc(N4CCOCC4)oc23)cc1	98
NC(=O)C1(N2CCCCC2)CCN(CCCC(=O)c2ccc(F)cc2)CC1	100
COc1ccc(C2CNC(=O)C2)cc1OC1CCCC1 (stereo not given)	95&98&92
CCN(CC)CCOC(=O)c1ccc(N)cc1	110&105

The list itself, previewed entries included:
SMILES	RVFV N-RNA FP
O=C(O)CCC(=O)c1ccc(-c2ccccc2)cc1	96
CC[C@H](NC(C)C)[C@H](O)c1ccc(O)c2[nH]c(=O)ccc12	95
CCCCNc1ccc(C(=O)OCCN(C)C)cc1	94
CCOc1nc(NC(=O)Cc2cc(OC)ccc2OC)cc(N)c1C#N	90
CCOC(=O)[C@H](CCc1ccccc1)N[C@@H](C)C(=O)N1Cc2ccccc2C[C@H]1C(=O)O	95&97
C/C=C/C(=O)N(CC)c1ccccc1C	110&97
Nc1ccc(-c2cccc3c(=O)cc(N4CCOCC4)oc23)cc1	98
NC(=O)C1(N2CCCCC2)CCN(CCCC(=O)c2ccc(F)cc2)CC1	100
COc1ccc(C2CNC(=O)C2)cc1OC1CCCC1 (stereo not given)	95&98&92
CCN(CC)CCOC(=O)c1ccc(N)cc1	110&105
COc1cc2ncnc(Nc3cccc(Cl)c3)c2cc1OC	99
CCCc1nc(C(C)(C)O)c(C(=O)O)n1Cc1ccc(-c2ccccc2-c2nn[nH]n2)cc1	93
CCN(CC)C(=O)c1ccc(Nc2nc(OCC3CCCCC3)c3[nH]cnc3n2)cc1	105
c1ccc(-c2cnc(Nc3ccc(OCCN4CCCC4)cc3)s2)cc1	107
CC[C@@H]1C(=O)OC[C@@H]1Cc1cncn1C	90&102&105
CC1Cc2ccccc2N1NC(=O)c1ccc(Cl)c(S(N)(=O)=O)c1 (stereo not given)	99&101
N[C@@H](Cc1c[nH]c2ccc(O)cc12)C(=O)O	96
N#Cc1ccc(C(c2ccc(C#N)cc2)n2cncn2)cc1	100&95
NOCC(=O)O	107
c1cnc2cc3c(cc2n1)C1CNCC3C1	96
COc1ccc(-c2cc(=S)ss2)cc1	95
CC12CCC(=O)C=C1CCC1C2CCC2(C)C1CCC2(O)C(=O)CO (stereo not given)	102
CN(C)CCCC1(c2ccc(F)cc2)OCc2cc(C#N)ccc21 (stereo not given)	96&90&100&91
CC(=O)Nc1ccc(CC(=O)O)cc1	100
C1COC(NC(C2CC2)C2CC2)=N1	98&91
COc1cc2c(cc1OC)-c1[nH]nc(Nc3cccc(F)c3)c1C2	94
CC[C@H](CO)Nc1nc(NCc2ccc(-c3ccccn3)cc2)c2ncn(C(C)C)c2n1	105
Cc1ccc(N(CC2=NCCN2)c2cccc(O)c2)cc1	93&96
CNCCCN1c2ccccc2CCc2ccccc21	97&98
Oc1ccc(C2CNCCc3c2cc(O)c(O)c3Cl)cc1 (stereo not given)	99&92&104&93
CCc1ccc(CCOc2ccc(CC3SC(=O)NC3=O)cc2)nc1 (stereo not given)	94&93
CC12CC3CC(C)(C1)CC(N)(C3)C2	97&88
CCN(CC)CCNC(C(=O)OCCC(C)C)c1ccccc1 (stereo not given)	99
Cc1ccc(=O)n(-c2ccccc2)c1	96
CC(C)COC(=O)c1ccc(N)cc1	95
CC(=O)CCCCn1c(=O)c2c(ncn2C)n(C)c1=O	91&96&94
COc1nccc(-c2c(-c3ccc(F)cc3)ncn2C2CCC(O)CC2)n1 (stereo not given)	94
O=C(O)c1cccnc1Nc1cccc(C(F)(F)F)c1	93&92
NC1CCN(c2nc3c(cc2F)c(=O)c(C(=O)O)cn3-c2ccc(F)cc2F)C1 (stereo not given)	100&99

Looked up by compound from above:
SMILES	RVFV N-RNA FP
CC(=O)CCCCn1c(=O)c2c(ncn2C)n(C)c1=O	91&96&94
O=C(O)c1cccnc1Nc1cccc(C(F)(F)F)c1	93&92
CC12CC3CC(C)(C1)CC(N)(C3)C2	97&88
Cc1ccc(=O)n(-c2ccccc2)c1	96
NC1CCN(c2nc3c(cc2F)c(=O)c(C(=O)O)cn3-c2ccc(F)cc2F)C1 (stereo not given)	100&99
COc1nccc(-c2c(-c3ccc(F)cc3)ncn2C2CCC(O)CC2)n1 (stereo not given)	94
CCN(CC)CCNC(C(=O)OCCC(C)C)c1ccccc1 (stereo not given)	99
CC(C)COC(=O)c1ccc(N)cc1	95

Assay outcomes deposited in PubChem BioAssay by ICCB-Longwood Screening Facility, Harvard Medical School.

Some of the compounds tested; rates above refer to the full screens.
